SARS PLP yeast: qHTS of Yeast-based Assay for SARS-CoV PLP; S. cerevisiae expressing SARS-CoV PLpro, growth rescue; control for the full effect not named in the record; AID 485353, 2010; hit rate 0.19% among 330,000; Potency, µM (top dose mostly 32.9 µM), inactives show at the highest dose activity, positive = growth rescue; active means well fitted rising curve with a large enough effect; inconclusive means small, poorly fitted or top-dose-only effect; inactive means no such curve, though single readings can be large or run the other way; also: 0% is about no effect; nearly all actives have a fitted effect of over 55% in size; growth read by luminescence after 48 h
Cruzain inh noDet: qHTS Assay for Promiscuous and Specific Inhibitors of Cruzain (without detergent); Potency, µM, for inactives: max response, negative = inhibition, most hits filed as inhibitors; purified cruzain, Z-FR-AMC fluorescence, no detergent; hit rate 2.3% among 200,000; AID 1476, 2009;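 also: plate controls were enzyme without inhibitor for no effect and buffer without enzyme for full effect; nearly all actives have a fitted effect of over 40% in size; top concentration of the series not given in the record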
Target sequence (P25779 123-467 limits assumed): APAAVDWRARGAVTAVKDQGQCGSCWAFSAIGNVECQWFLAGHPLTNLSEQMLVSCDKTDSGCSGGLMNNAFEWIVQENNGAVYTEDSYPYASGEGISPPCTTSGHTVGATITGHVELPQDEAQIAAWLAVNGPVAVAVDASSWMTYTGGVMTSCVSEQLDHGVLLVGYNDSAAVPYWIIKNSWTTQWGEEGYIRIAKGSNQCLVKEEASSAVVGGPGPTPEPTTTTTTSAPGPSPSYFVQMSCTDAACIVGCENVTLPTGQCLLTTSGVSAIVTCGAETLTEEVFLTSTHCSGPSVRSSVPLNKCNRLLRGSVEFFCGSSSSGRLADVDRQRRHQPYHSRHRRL
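Detergent-free condition (0.00005% Triton X-100) in acetate buffer pH 5.5 with DTT. 1.5 nM enzyme and compound were pre-mixed 15 min, then 2 uM Z-FR-AMC substrate added; reaction progress from fluorescence change between first and third reads (60 s).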
RE007 growth inh: qHTS Assay for Inhibitors of the HIV-1 protein Vpr | Potency, µM (titrated, usually from 92.2 µM), inactives show top-dose activity change, negative = less growth | S. pombe RE007 Vpr strain, BacTiter-Glo ATP luminescence, 24 h; control for the full effect not named in the record | hit rate 0.21% among 360,000; active = well fitted falling curve with a large enough effect; inconclusive = small, poorly fitted or top-dose-only effect; inactive = no such curve, though single readings can be large or run the other way;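 also: % is scaled to controls: 0 for no effect and ±100 for the full control effect; nearly all actives have a fitted effect of over 50% in size; the assay follows cell death caused by Vpr and the record does not say whether a fall means rescue or toxicity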
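Fission yeast RE007 carrying one integrated HIV-1 vpr copy, seeded at OD 0.01 in PMG+AL medium with 23 nL pinned compound. Grown 24 h at 30 degrees; viability read by BacTiter-Glo luminescence after 5 min.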
Lassa entry inh: qHTS for Inhibitors of binding or entry into cells for Lassa Virus. Lassa virus pseudotype entry inhibition, cell reporter; control for the full effect not named in the record. Potency, µM (top dose mostly 37.9 µM), without a hit: top-dose activity change, negative = inhibition, most hits filed as inhibitors. hit rate 1.2% among 300,000. AID 540256, 2011; active means well fitted inhibition curve with a large enough effect; inconclusive means small, poorly fitted or top-dose-only effect, or effect the other way; inactive means flat fitted curve, though single readings scatter; tested in HEK293 cells; also: % is scaled to controls: 0 for no effect and ±100 for the full control effect; nearly all actives have a fitted effect of over 50% in size; luciferase read-out
NS1 inh: qHTS Assay for Inhibitors of Influenza NS1 Protein Function; Potency, µM (highest dose often 46.1 µM), without a hit: at the top dose activity, positive = more growth; S. cerevisiae slowed by influenza A NS1, growth recovery by OD600; hit rate 0.4% among 270,000; active means well fitted rising curve with a large enough effect; inconclusive means small, poorly fitted or top-dose-only effect; inactive means no such curve, though single readings can be large or run the other way; also: nearly all actives have a fitted effect of over 50% in size
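Compounds were scored for reversing the slow growth caused by influenza A NS1 in S. cerevisiae, measured by optical density at 600 nm. Assay medium contained 2% galactose at pH 6.0; NS1-free yeast of the same strain were the positive control.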
Cruzain inh Det: qHTS Assay for Promiscuous and Specific Inhibitors of Cruzain (with detergent); AID 1478, 2009; Potency, µM, for the others: max response, negative = inhibition, usual class: inhibitors; Cruzipain (Trypanosoma cruzi), P25779; purified cruzain, Z-FR-AMC fluorescence, 0.01% Triton; hit rate 0.43% among 200,000;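 also: plate controls were neutral wells for no effect and buffer without enzyme for full effect; nearly all actives have a fitted effect of over 40% in size; top concentration of the series not given in the record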
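In this qHTS format, compounds are incubated with 1.5 nM cruzain for 15 min at room temperature before 2 uM Z-FR-AMC is added. Release of AMC is followed at 360/450 nm, and progress is taken as the 60 s fluorescence difference.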
MARV entry inh: qHTS for inhibitors of binding or entry into cells for Marburg Virus; Marburg virus pseudotyped entry inhibition, cell reporter; control for the full effect not named in the record; about a third of the inactives were read at about 46 µM; Potency, µM (series often up to 37.8 µM), inactives show top-dose activity change, negative = inhibition, most hits filed as inhibitors; hit rate 1.8% among 300,000; active = well fitted inhibition curve with a large enough effect; inconclusive = small, poorly fitted or top-dose-only effect, or effect the other way; inactive = flat fitted curve, though single readings scatter; tested in HEK293 cells; about a fifth of its hits are not listed in these tables; also: % is scaled to controls: 0 for no effect and ±100 for the full control effect; luciferase read-out
StopGo reporter: High Throughput Screening for Foot and Mouth Disease Virus Antivirals | human cells with a luciferase reporter of 2A StopGo recoding; control for the full effect not named in the record | Potency, µM (series often up to 57.9 µM), for the others: top-dose signal change, negative = less light | hit rate 1.2% among 410,000; active = well fitted falling curve with a large enough effect; inconclusive = small, poorly fitted or top-dose-only effect; inactive = no such curve, though single readings can be large or run the other way; tested in HEK293T cells; also: % is scaled to controls: 0 for no effect and ±100 for the full control effect; nearly all actives have a fitted effect of over 45% in size; luciferase light after 4 h
* marks the source's active call; other numbers are inactive results; ? = inconclusive; . = not tested or not shown; & = joins results of further samples; [ ] = another dose, or the depositor's remark. Unless noted, calls follow the shape of the dose curve; as a rule, active = well fitted curve in the direction sought with a large enough effect; inconclusive = small, poorly fitted or top-dose-only effect, or another doubt; inactive = no such curve, though single readings can be large; an effect the other way counts as inactive or inconclusive. Potency is read from the fitted curve at half-maximal effect. Compounds were not picked by outcome; overall some 4.5% were active at least once.

SMILES	SARS PLP yeast	Cruzain inh noDet	RE007 growth inh	Lassa entry inh	NS1 inh	Cruzain inh Det	MARV entry inh	StopGo reporter
COc1ccccc1C(=O)Oc1c(Sc2ccccc2)c(C)nn1-c1ccccc1	.	-24.6%	.	?	.	-6.8%	-25.6%[46.1 µM]	-26.0%
O=C(NCCC1=CCCCC1)C(=O)NCC1OCCCN1S(=O)(=O)c1ccc(F)cc1 (configuration not stated)	-2.0%	.	9.0%	-6.9%[46.1 µM]	.	.	?	-16.0%
CCOC(=O)N1CCN(C(=O)c2cc3n(n2)C(C(F)(F)F)CC(c2ccc4c(c2)OCO4)N3)CC1 (configuration not stated)	-3.8%	.	-1.6%	-9.1%	-6.0%	.	?	-11.0%
COc1ccccc1NC1=C(C)C(=O)CC1	4.0%	2.6%	5.7%	1.2%	2.6%	-0.2%	-21.4%	23.7%
Cc1c(C(=O)N2CCN(c3ccccc3F)CC2)sc2ncn(CC(=O)N3CCOCC3)c(=O)c12	4.3%	6.0%	-16.1%	-0.1%	-0.4%	-2.3%	-12.0%	-15.8%
CN1CCN(C(=O)c2cc(-c3cccc(Cl)c3)on2)CC1	7.4%	-2.4%	-18.2%	?	-9.0%	2.2%	?	38.5%[activator]
O=[n+]1cc(-c2ccccc2)n([O-])c2c1CCCCC2	1.6%	-12.9%	-2.2%	10.9%	5.3%	-2.0%	2.0%	0.3%
COc1ccc(Cl)cc1NC(=O)Cn1cnc2c1c(=O)n(C)c(=O)n2C	.	0.6%	.	0.2%[46.1 µM]	.	-2.1%	.	-27.9%
CN(C)S(=O)(=O)c1ccc(N2CCCC2)c(C(=O)NNC(=O)COc2ccccc2F)c1	0.3%	.	9.9%	1.7%[46.1 µM]	.	.	-24.1%	2.5%
O=C(CCn1cccc1)NCc1ccc2c(c1)OCO2	?	7.5%	-10.6%	4.0%	15.6%	3.2%	10.5%	0.0%
CCc1nnc(NS(=O)(=O)c2ccc(NC(=O)c3cccc([N+](=O)[O-])c3)cc2)s1	4.9%	.	-2.3%	.	21.7%	.	.	-8.7%
O=c1[nH]c(NC2CCCCC2)c([N+](=O)[O-])c(=O)[nH]1	16.8%	-6.6%	9.2%	-3.1%	14.5%	-3.4%	?	-6.3%
COc1ccc(OC)c(NC(=O)CCC(=O)N(Cc2ccc(OC)c(OC)c2)c2nccs2)c1	-0.7%	.	7.8%	-17.6%	-3.7%	.	-23.5%[46.1 µM]	11.4%
C/C(=N\NC(=O)c1ccc(N)cc1)C1CC1	-6.9%	.	-7.0%	?	5.3%	.	24.8%[46.1 µM]	-10.1%
COc1ccc(NC(=O)CN2CCN(CC(=O)Nc3ccccc3Cl)CC2)c(OC)c1	-7.5%	3.1%	6.6%	-36.4%	-1.3%	4.4%	-24.0%	-19.6%
Cc1ccc(CNC(=O)c2ccccc2SCC(=O)NCC2CCCCC2)cc1	0.4%	3.5%	-1.9%	-13.1%	0.7%	-0.6%	-9.0%	-20.5%
CCC(=O)Nc1ccc(CC)cc1-c1nc2ccccc2n(Cc2ccccc2)c1=O	.	7.5%	.	3.9%[46.1 µM]	.	-3.8%	-2.6%[46.1 µM]	11.8%
c1ccc(N2CCN(c3c4c(nc5ncnn35)CCC4)CC2)cc1	1.3%	4.7%	-18.3%	-5.9%	-11.1%	1.5%	?	?
Cc1cccc(CC(=O)NCCc2csc(-c3ccc(C(F)(F)F)cc3)n2)c1	.	?	.	?	.	-13.2%	.	-24.5%
CCN(CC)c1ccc2nc3c4ccccc4c(=O)cc-3oc2c1	-0.8%	.	0.6%	.	1.2%	.	.	?
Cc1ccc(N(C(C)C(=O)O)S(=O)(=O)c2c(C)n[nH]c2C)cc1 (configuration not stated)	2.3%	-1.3%	8.6%	1.3%	-4.8%	7.7%	8.0%	-18.0%
Cc1ccc(-n2c(C)cc(=O)cc2C)cc1[N+](=O)[O-]	6.0%	.	-14.0%	-20.5%[46.1 µM]	-5.2%	.	-2.5%[46.1 µM]	-3.2%
CCN(CC)CCCNC(=O)Cn1ncn2cccc2c1=O	-6.5%	8.1%	-14.8%	-12.5%	6.0%	-2.9%	-10.3%	2.6%
CCCCNC(=O)C(CC)Sc1nnc(-c2cccc(F)c2)c(-c2cccc(F)c2)n1 (configuration not stated)	.	-6.4%	.	-18.6%[46.1 µM]	.	-2.8%	.	-17.6%
CCc1nnc(NC(=O)CSc2nnc(-c3ccccc3O)n2-c2ccc(C)cc2)s1	-0.9%	4.1%	-4.2%	-20.8%	1.4%	1.8%	?	-23.9%
Cn1c(=O)oc2cc(S(=O)(=O)N3CCC(C(=O)NCc4ccccc4)CC3)ccc21	3.7%	6.9%	1.5%	17.0%[46.1 µM]	-5.2%	-0.5%	2.5%[46.1 µM]	-4.2%&-4.9%
N#Cc1cccc(OC(=O)c2ccc3c(=O)n4c(nc3c2)CCC4)c1	5.3%	.	-8.7%	28.9%	.	.	6.2%	15.6%
O=C(C1CC(=O)N(C2CCCC2)C1)N1CCN(c2cccc(Cl)c2)CC1 (configuration not stated)	6.9%	.	13.3%	-2.5%	1.1%	.	?	?
CC1SCC(=NOCc2ccccc2)CS1 (configuration not stated)	0.4%	.	-4.0%	-4.2%	-0.2%	.	?	59.9%[activator]
O=C(CCCCl)Oc1ccc2cc(-c3ccc4ccccc4n3)c(=O)oc2c1	-13.8%	?	-28.3%	26.7%	0.8%	-9.5%	14.0%	9.7%
CCN1CCN(c2ccc(NC(=O)c3cccc(OCc4ccccc4)c3)cc2)CC1	10.8%	-4.2%	13.3%	-1.2%	-8.4%	-3.1%	?	-4.8%
CN(CCc1ccccn1)C(=O)CN(C)S(=O)(=O)c1ccc2c(c1)c(=O)n(C)c(=O)n2C	8.6%	9.2%	8.1%	6.5%	8.6%	7.4%	7.2%	17.4%
CCOC(=O)CCSc1nc(N2CCOCC2)c2c(c1C#N)CC(C)(C)OC2	2.1%	.	5.4%	-2.2%	4.6%	.	27.2%[46.1 µM]	-21.2%
Cc1ccc(NC(=O)Cn2cnc3cc([N+](=O)[O-])ccc3c2=O)cc1	-1.8%	.	-13.1%	12.4%[46.1 µM]	-1.5%	.	-2.2%[46.1 µM]	-13.2%
c1ccc(Cn2c(SCCN3CCOCC3)nnc2-c2cccnc2)cc1	-1.5%	-0.6%	4.3%	?	-4.1%	-0.3%	-2.2%&-2.2%[46.1 µM]	-1.3%
CC(C)[C@H](NC(=O)OC(C)(C)C)c1nnc(SCc2cccc(F)c2)o1	-6.7%	-1.3%	24.4%	?	-20.0%	-4.2%	-6.4%	?
O=C(CN1C(=O)/C(=C/c2ccco2)SC1=S)Nc1ccc(O)c(C(=O)O)c1	1.0%	.	1.3%	.	8.5%	.	.	-6.4%
Cc1ccc2cc(CN(c3ccccc3C)S(=O)(=O)c3ccccc3)c(=O)[nH]c2c1	2.5%	.	6.9%	.	-4.5%	.	.	0.0%
O=C(c1cc(COc2ccc(F)cc2Cl)on1)N1CCC(OCc2cccnc2)CC1	-1.3%	.	13.3%	-4.2%	-32.3%	.	-2.9%[46.1 µM]	-14.1%
Cc1cc(C)cc(NC(=O)C(OC(=O)C2=COCCO2)c2ccccc2)c1 (configuration not stated)	-22.7%	-5.7%	8.1%	12.0%	-34.2%	-10.6%	-3.6%	-14.7%
C/C(=N\Nc1nc(C(C)(C)C)cs1)c1ccccc1	-8.5%	.	-24.1%	.	-5.0%	.	.	-3.9%
COc1cc(OC)c(NC(=S)Nc2cccc(C)c2)cc1Cl	-3.7%	-0.8%	1.3%	-0.8%	-4.4%	-8.3%	-25.9%	-9.5%
CCOC(=O)NC(=O)/C(C#N)=C\NNc1ncc(C(F)(F)F)cc1Cl	5.8%	.	9.4%	-3.0%[46.1 µM]	.	.	1.7%[46.1 µM]	-14.0%
O=C(NCc1ccc(Cl)cc1)C1CCCN(c2nc3ccccc3n3cccc23)C1 (configuration not stated)	.	-10.0%	.	?	.	1.3%	.	-15.8%
Cc1ccccc1C(=O)Nc1cccc(NC(=O)c2ccccc2[N+](=O)[O-])c1	-1.5%	.	0.8%	.	-11.1%	.	.	14.7%
COc1ccccc1N1CCN(c2ccc(N3C(=O)CCC3=O)cc2[N+](=O)[O-])CC1	-6.0%	.	-11.0%	6.4%	.	.	-0.1%[46.1 µM]	-18.6%
Cc1ccc(NC(=S)Nc2ccc3cn[nH]c3c2)cc1	3.2%	5.0%	-20.6%	-1.4%	5.7%	-8.9%	-2.7%	0.0%
Cc1cccc(Cc2nnc(CCC(=O)N(C)Cc3ccncc3C)o2)c1	0.5%	.	-2.8%	0.2%	1.8%	.	24.2%[46.1 µM]	18.1%
O=C(NC1CCCCCC1)C1CCN(C(=O)c2cccc(Cl)c2)CC1	-0.3%	.	6.1%	13.7%	0.8%	.	6.0%	14.8%
CC1=C(C(=O)Nc2ccccc2)C(c2ccc(O)cc2)N2C(=O)CSC2=N1 (configuration not stated)	-6.3%	-1.8%	34.3%	18.0%	26.0%	-5.7%	?	1.0%
COC(=O)c1ccc2c(=O)sc(N3CCC(C(N)=O)CC3)nc2c1	-2.2%	-19.5%	15.1%	13.7%	10.8%	-4.7%	-11.4%	-6.4%
COc1ccccc1N1C(=O)c2ccccc2NC1c1ccncc1 (configuration not stated)	1.5%	0.5%	-3.9%	-5.0%	9.2%	2.4%	-2.3%[46.1 µM]	-10.3%
COc1cc2ccccc2cc1C(=O)N1CCN(C(C)=O)CC1	1.5%	.	-9.1%	.	10.4%	.	.	-3.6%
CCC(C)NC(=O)CSc1nc2cc3c(cc2c(=O)n1CCCCCC(=O)NCc1ccc2c(c1)OCO2)OCO3 (configuration not stated)	.	5.7%	.	2.8%[46.1 µM]	.	2.1%	.	-1.6%
COc1ccc(CCNc2nncc(=O)[nH]2)cc1OC	-1.2%	3.0%	-1.6%	19.4%	2.7%	1.3%	-6.5%	.
